BJeLR lethal: BJeLR cell viability loss | BJeLR (HRASV12) viability, CellTiter-Glo ATP luminescence, 48 h; reference of the scale not given here | inhibition, % (no concentration beside the values) | actives 0.17% (n = 300,000);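 active = replicate mean above 50%; inconclusive = above 50% but judged a plate artefact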;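 also: 50 nL library stock added to about 25 µL; numbers are from one replicate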
PrP 5UTR inh: suppresses PrP 5' UTR mRNA reporter expression | inhibition, % (test concentration not listed) | cell-based PrP 5' UTR mRNA reporter, plate reader | actives 0.35% (n = 340,000);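 active = every replicate at 50% or more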;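 also: 0 = median of the neutral control wells; tested in H4 reporter cells; numbers are from one replicate; inactives centre near -14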
Autofluor counter: compound fluorescence in toxin protease inhibitor counterscreen | compound autofluorescence counterscreen, microsphere flow cytometry; active compounds read high | fluorescence intensity (no concentration beside the values) | actives 3.1% (n = 360,000);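 active = at least 3 SD above the mean of all compounds, about 16000 in these data; inconclusive = too few beads counted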;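 also: 100 nL of 1 mM stock went into each well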
Mtb hypoxia inh: inhibitors of hypoxia-regulated fluorescent reporter in Mycobacterium tuberculosis. M. tuberculosis hypoxia-regulated fluorescent reporter, fluorescence. fluorescence inhibition, % (test concentration not listed). actives 0.1% (n = 300,000). AID 1159583;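 active = 35 to 45% if threefold the growth effect, above 45% if 1.5-fold the growth effect; inactive = the rest, general growth blockers included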;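 also: wells of about 50 µL received 100 nL stock; 0% = vehicle wells and 100% = reference inhibitor wells; whole bacteria with a GFP reporter of the hypoxia response; strong numbers were not always called active; many hits fall short of the cut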
Sa ugtP lethal: growth inhibition of S. aureus ugtP deletion strain. growth inhibition, % (no concentration beside the values). actives 0.54% (n = 330,000). S. aureus RN4220 ugtP deletion, OD600 growth, 16 h; some inactives read as strong as hits;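 active = z-score under -3 and OD600 up to 0.15 on both plates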;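 also: plate controls were untreated wells for no effect and antibiotic for full effect; wells of about 80 µL received 100 nL stock; the first replicate is given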
Sa RN4220 lethal: kills Staphylococcus aureus RN4220. S. aureus RN4220 growth, OD600, 16 h. inhibition, % (concentration not given with the values). actives 0.33% (n = 330,000);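 active = z-score of -3 or lower and OD600 up to 0.18 on both plates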;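 also: plate controls were untreated cells for no effect and reference antibiotic for full effect; stock transfer was 100 nL into about 80 µL; one replicate is shown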
Mtb hypoxia inh growth: second read-out of Mtb hypoxia inh, no call of its own (marks repeat the call); growth inhibition, %; measured here: M. tuberculosis growth (absorbance);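 0% = vehicle and 100% = reference antibiotic; read after six days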
* = called active by the depositor; ? = inconclusive; . = not tested or not shown; & = joins results of further samples.

Sample of the layout (2 entries):
SMILES	BJeLR lethal	PrP 5UTR inh	Autofluor counter	Mtb hypoxia inh	Mtb hypoxia inh growth	Sa ugtP lethal	Sa RN4220 lethal
COc1ccccc1NC(=S)N(Cc1ccccc1)Cc1ccccn1	-4	-8	10384	0	1	0	8.8
Nc1c(C(=O)NC2CCCC2)c2nc3ccccc3nc2n1N=Cc1cccnc1	.	.	.	0	3	8	15

The listing, from the first entry:
SMILES	BJeLR lethal	PrP 5UTR inh	Autofluor counter	Mtb hypoxia inh	Mtb hypoxia inh growth	Sa ugtP lethal	Sa RN4220 lethal
COc1ccccc1NC(=S)N(Cc1ccccc1)Cc1ccccn1	-4	-8	10384	0	1	0	8.8
Nc1c(C(=O)NC2CCCC2)c2nc3ccccc3nc2n1N=Cc1cccnc1	.	.	.	0	3	8	15
Cc1c(NC(=O)COc2cccc(F)c2)c(=O)n(-c2ccccc2)n1C	.	-23	3578	-4	3	-2	3.2
CC(O)[C@@H](NC(=O)C1CCC(CNC(=O)[C@H](Cc2ccccc2)NC(=O)OC(C)(C)C)CC1)C(=O)O (some centres not stated)	-1	-9	4319	-9	-2	0	0.9
Cn1cc(Cl)c(C(=O)N/N=C/c2ccc(OS(=O)(=O)c3ccccc3)cc2)n1	2	-24	5578	.	.	.	.
COc1cc(OC)cc(-c2c(-c3cccs3)c3cc(-c4cccc5[nH]ccc45)ccc3n2C)c1	.	-12	3954	2	-7	-19	-12
CC1CCN(S(=O)(=O)c2ccc(-c3nnc(SCc4cccnc4)o3)cc2)CC1	-2	-12	23932*	-6	5	-1	3.4
CN(Cc1cccs1)C(=O)C1CCN(S(=O)(=O)c2ccccc2)CC1	.	-23	6674	9	4	15	4.3
CC(=O)N(C(C)=O)c1nc(-c2ccccc2)cn1N=Cc1ccccc1	.	.	.	24	13	0	1.8
C=CCCC(Cc1ccc(F)cc1)C(=O)OCC1CCCN1C(=O)C(CC=C)CC(=O)N(CCO)Cc1ccccc1 (configuration not stated)	.	.	.	4	-5	7	0.3
CCN1C(=O)C2C(c3ccc(-c4ccc(Cl)c(Cl)c4)cc3)N3CCCC[C@@]3(C(=O)OC)C2C1=O (some centres not stated)	.	.	.	-2&0	-4&6	-2&-18	-0.1&5.7
O=C(CCC(=O)N1CCN(c2ccccc2F)CC1)N1CCN(c2ccc(F)cc2)CC1	9	-8	3421	11	14	19	7.1
CCOC(=O)c1c(-c2cccc([N+](=O)[O-])c2)csc1N	-3	-9	2286	-5	-6	-6	-6.6
COc1cccc(-c2nc(C(=O)NCC3CCCO3)cc3c2[nH]c2ccccc23)c1 (configuration not stated)	-4	3	6407	.	.	-13	4.9
CCCS(=O)(=O)NCCc1cc2c(C)ccc(C)c2[nH]c1=O	10	-13	4399	5	5	9	2.2
O=C(NCC1CCCN(Cc2cccc(OCCO)c2)C1)c1ccc(F)cc1 (configuration not stated)	3	-24	4111	2	2	3	2.4
N#Cc1c(-c2ccc(F)cc2)ccnc1N1CCOCC1	0	-14	4064	1	5	-4	2.0
CCOc1ccc2nc(NC(=O)CSc3nc4c(c(=O)n(C)c(=O)n4C)n3C(C)C)sc2c1	-10	-27	5932	5	5	-8	6.0
C#CCSc1cc(C(F)(F)F)nc(-c2ccccn2)n1	4	-15	?	11	6	4	3.3
Cc1ccc(SCC(=O)Nc2c(Br)cnn2C)cc1	1	-27	6731	6	-3	1	0.1
Cc1ccc(N=Nc2ccc3ccccc3c2O)cc1	12	37	3009	10	9	31	-13
CCc1ccccc1-n1nnnc1SCC(=O)Nc1cc(C)on1	5	-13	4240	13	2	0	2.3
Clc1cccc(Cl)c1COc1ccncc1	-2	-14	3248	7	1	0	-15
Cc1cccc(CCNS(=O)(=O)c2ccc3c(c2)NC(=O)CS3)c1	3	1	4661	9	3	-4	2.7
O=S1c2ccccc2Sc2ccccc21	.	-16	2889	2	-3	7	0.6
COCCN(CCOC)C(=O)COC(=O)c1cc([N+](=O)[O-])ccc1Cl	2	-10	4740	9	1	3	0.9
Cc1cccc(Nc2nnc(-c3ccc(C(=O)N4C[C@H]5C[C@H](C4)c4cccc(=O)n4C5)cc3)c3ccccc23)c1	-12	-16	3123	.	.	-4	3.8
COc1ccc(N(C(=O)c2snc(C(N)=O)c2N)C(C(=O)NC2CCCCC2)c2ccc(F)cc2)c(OC)c1 (configuration not stated)	2	-17	3567	0	-11	14	10
COc1ccc(CNC(=O)c2ccc(S(=O)(=O)N3CCCC3)cc2)cc1OC	-7	-27	2695	.	.	11	-1.3
Cc1ccc(CNC(=O)CCC2CCCN(Cc3cccc4c3OCO4)C2)o1 (configuration not stated)	-3	-2	5063	4	5	11	1.0
CC1CC(C)CN(C(=O)COC(=O)CCc2nc3ccccc3c(=O)[nH]2)C1 (configuration not stated)	-6	1	2627	2	7	2	2.8
CC(Sc1n[nH]c(-c2cccs2)n1)C(=O)Nc1ccccc1F (configuration not stated)	.	0	3226	3	3	1	8.5
C[C@@H]1CN([C@@H](C)CO)C(=O)c2cc(N(C)C)ccc2O[C@@H]1CN(C)Cc1ccncc1	.	-10	2974	3	9	-4	-2.7
CC1CCN(c2oc(Cc3cccc4ccccc34)nc2C#N)CC1	9	-7	2322	8	12	1	-3.5
COc1ccccc1Cn1nnc2c(=O)[nH]c(C3CCN(C(=O)c4ccc(F)cc4)CC3)nc21	8	-4	3398	12	8	1	-14
NNC(=O)c1ccc(S(=O)(=O)N2CCc3ccccc32)cc1	2	-13	4640	7	6	0	7.2
Cc1cc(OCC(=O)NC2CC2)c2c(C)c(C)c(=O)oc2c1	10	6	5096	0	4	6	1.4
N#C/C(=C(/O)COc1ccccc1)c1nc2ccccc2s1	6	-31	4739	1	5	9	22
Cc1ccc(C(C)C)cc1C(=O)CC1(O)C(=O)N(C)c2ccccc21 (configuration not stated)	-3	-14	6693	.	.	-3	3.2
O=C(O)c1cccc(-c2ccc(/C=N/n3cnnc3)o2)c1	-1	-39	3253	.	.	.	.
CCCc1cc(C(=O)Nc2cc(C)ccc2O)no1	8	-96	4353	16	5	-5	8.4
Cc1ccccc1-c1nnc(SCC(=O)NC2CCCC2)n1C	0	-14	6595	5	-1	4	2.0
CCn1c(=N)c(S(=O)(=O)c2ccc(F)cc2)cc2c(=O)n3ccccc3nc21	3	-11	2994	-2	6	-6	9.0
COc1ccc(N(CN2C(=O)C3CC=CCC3C2=O)C(=O)c2ccco2)cc1 (configuration not stated)	-6	-9	4394	2	6	-9	3.6
COc1cc(OC)c2ccc(=O)oc2c1C(CCN1CCN(c2ccccc2)CC1)c1ccc2c(c1)OCO2 (configuration not stated)	-1	-10	3398	10	7	-1	3.9
Cc1cccc(N(CC(=O)NCc2ccc3c(c2)OCO3)C(=O)CCC(=O)Nc2ccccn2)c1	-5	-23	2473	.	.	-4	-1.7
Cc1ccc(NC(=O)Cn2cc(C(F)(F)F)cc(Cl)c2=O)cc1S(=O)(=O)N1CCCCC1	-3	-8	5378	6	12	2	1.8
CCOc1cc(N2CCCC2)ccc1[N+](=O)[O-]	7	-9	2407	19	2	0	7.1
CCc1ccc(C(=O)COC(=O)CNC(=O)c2ccc(N3C(=O)c4ccccc4C3=O)cc2)cc1	1	5	15896	-4	-12	9	6.0
O=C(CN1CCN(Cc2ccccc2)C1=O)NCCCN1CCOCC1	-5	-18	5999	3	12	3	2.4
O=[N+]([O-])c1cccc(C=NN2CCN(Cc3ccc(Cl)cc3)CC2)c1	.	.	.	10	13	-5	1.4
COc1ccc(C2c3ccc(O)cc3Oc3ncn(CCN4CCOCC4)c(=N)c32)cc1 (configuration not stated)	-7	-11	4720	2	-8	-8	0.2
COc1ccc(C2NC(=O)NC(C)=C2C(=O)Nc2cccc(C)c2C)cc1 (configuration not stated)	9	0	5984	-2	3	3	-0.2
C[C@H]1COC(=O)[C@H](Cc2ccc(F)cc2)CC/C=C/C[C@@H](CC(=O)N(CCO)Cc2ccccc2)C(=O)N1	.	-13	3600	3	4	0	3.2
Cc1nc2ncnn2c(N2CCCC(C(=O)Nc3ccccc3Br)C2)c1C (configuration not stated)	-6	-25	4284	6	13	5	9.1
Cc1ccc(N2CC(C(=O)NCCN3CCOCC3)CC2=O)cc1C (configuration not stated)	7	-8	4407	7	5	0	4.9
Clc1ccc2nc(CSc3nnc4ccccn34)cn2c1	1	-28	2694	.	.	-3	3.7
Cc1ccccc1C(C(=O)NC1CCCCC1)N(C(=O)c1ccccn1)c1cccnc1 (configuration not stated)	6	-23	3199	9	7	-73	4.3
CC(C)(C)c1ccc(NS(=O)(=O)c2ccc(N)cc2)cc1	4	-22	3051	1	-3	9	6.3
CCOc1ccccc1C(=O)Nc1nnc(SCC(=O)Nc2cc(C)on2)s1	11	-37	3103	15	-2	-81	4.0

Complete entries, looked up by structure. Values in the order: BJeLR lethal	PrP 5UTR inh	Autofluor counter	Mtb hypoxia inh	Mtb hypoxia inh growth	Sa ugtP lethal	Sa RN4220 lethal
`COc1ccccc1NC(=S)N(Cc1ccccc1)Cc1ccccn1` as listed: -4	-8	10384	0	1	0	8.8
`C#CCSc1cc(C(F)(F)F)nc(-c2ccccn2)n1` as listed: 4	-15	?	11	6	4	3.3
`O=[N+]([O-])c1cccc(C=NN2CCN(Cc3ccc(Cl)cc3)CC2)c1` as listed: .	.	.	10	13	-5	1.4

Carrying on:
SMILES	BJeLR lethal	PrP 5UTR inh	Autofluor counter	Mtb hypoxia inh	Mtb hypoxia inh growth	Sa ugtP lethal	Sa RN4220 lethal
Cc1ccc(C(=O)N=c2sccn2C)cc1S(=O)(=O)N1CCOCC1	6	-70	.	12	11	0	3.3
Cc1nnsc1C(=O)NC1CCCc2c1cnn2-c1ccc(F)cc1F (configuration not stated)	10	-30	5579	10	10	3	-2.6
CC(CNC(=O)COC(=O)c1ccco1)c1ccccc1 (configuration not stated)	.	-8	4185	2	6	4	5.5
COc1ccc(N2CCN(C(c3cccs3)C(C)NS(C)(=O)=O)CC2)cc1 (configuration not stated)	1	-2	2492	10	5	8	1.8
COC(=O)CN(c1nc(C)cc(OC)n1)S(=O)(=O)c1ccc(C)cc1	-8	-18	2920	.	.	4	-3.6
O=[N+]([O-])c1cc(C(F)(F)F)ccc1NCCc1c[nH]c2ccc(O)cc12	-2	-28	6842	9	-11	12	3.6
COc1ccc(CN2CCN(S(=O)(=O)c3ccccc3)CC2)cc1Br	6	-14	10356	0	2	-3	3.2
CCN(CC(=O)Nc1c(F)cccc1F)C(=O)CCc1nc2ccccc2c(=O)[nH]1	3	-3	?	6	1	4	3.0
Nc1cc(=O)[nH]c(SCc2nc3ccccc3n2Cc2ccccc2)n1	-17	-12	7629	-5	4	6	2.8
Cc1ccc(C(=O)c2c3ccc(C(F)(F)F)cc3[n+]([O-])n2CCCN)cc1	-2	-5	2849	.	.	-1	7.8
Cc1nc2ncnn2c(C)c1CCC(=O)N1CCN(c2ccccn2)CC1	2	-9	?	-2	6	2	6.9
Cc1nn(CC#N)c(=O)n1-c1ccc(F)cc1	-4	-7	4055	.	.	1	-2.2
COC(=O)/C=C1/SC(=NC(=O)c2ccc(F)cc2)NC1=O	-4	.	.	5	12	-3	5.7
OC(CNCc1ccco1)Cn1c2ccc(Br)cc2c2cc(Br)ccc21 (configuration not stated)	-14	-18	11557	1	-4	-11	-5.8
C[C@]12CCC3c4ccc(OS(=O)(=O)O)cc4CCC3C1CCC2=O (some centres not stated)	.	.	.	7&-5&7	7&-2&3	4&-1&-2	0.6&-1.9&5.2
O=C(CSc1ncn[nH]1)NCCCc1ccccc1	9	-27	6311	.	.	0	1.4
Cc1cccc(-n2c(C)n[nH]c2=S)c1	2	-12	10192	7	1	4	1.2
CC1Cc2ccccc2N1Cc1nc2scc(-c3cccs3)c2c(=O)[nH]1 (configuration not stated)	4	-6	4526	.	.	1	0.8
COc1cc2c(C(=O)NC3CCCCCC3)cn(C)c(=O)c2cc1OC	-3	-18	4142	.	.	0	3.3
COc1ccc(C2=NO[C@@H]3C(=O)N(Cc4ccccc4)C(=O)[C@H]23)c(OC)c1	-1	.	5692	8	-3	5	2.9
Cc1snc(SCC(=O)c2ccc(F)cc2)c1C#N	-8	-60	4309	5	1	13	21
O=C(CNc1cccc([N+](=O)[O-])c1)NN=Cc1ccc(F)cc1	.	.	.	2	10	5	0.1
O=C(Nc1c(F)cccc1F)C1CCN(C(=O)c2cccs2)CC1	1	4	4393	-4	-13	3	5.7
